miR-21 reporter = miR-21 reporter, rising signal | 340,000 tested, under 10 active | Potency, µM (series often up to 38.3 µM), inactives show at the top dose reporter change, positive = more light | HeLa miR-21 FLuc reporter, luciferase, 48 h; active = well fitted rising curve with a large enough effect; inconclusive = small, poorly fitted or top-dose-only effect; inactive = no such curve, though single readings can be large or run the other way;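 further: % of control where 0% means no effect; miR-21 action dims this reporter so a rising signal means less miR-21 action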
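HeLa miR-21-FLuc reporter line, endogenous miR-21; 2000 cells/well in DMEM/10% FBS; compound titration up to ~40uM final, 48 h, 37 degree Celsius; luciferase detection reagent, 15 min lysis, CCD luminescence.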
Rango-impB inh = prevents formation of the Rango-importin beta complex | 340,000 tested, 0.031% active | Potency, µM (top dose mostly 92.2 µM), inactives show at the highest dose inhibition of complex formation | Rango CFP/YFP FRET sensor + importin beta, 45 min; active = rising FRET ratio curve, often small or poorly fitted; inconclusive = mostly compound fluorescence or quenching in the first reads; inactive = flat curves in all reads;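 further: potency means the concentration at half of the fitted maximal effect; 0% = DMSO wells and 100% = buffer wells lacking importin beta; nearly all actives have a fitted effect of over 15% in size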
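FRET biosensor Rango (snurportin 1 IBB between N-terminal EYFP and C-terminal Cerulean), 50 nM in PBS/1 mM DTT/0.02% Tween-20/0.1% BSA, preincubated 5 min RT with compound; 0.125 microM importin beta added, 45 min RT, CFP/YFP FRET ratio read.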
Rango release inh = inhibitors of RanGTP-induced Rango-importin beta complex dissociation. Biochemical FRET Rango-importin beta, RanGTP-induced dissociation. Potency, µM (series often up to 46.1 µM), for inactives: top-dose activity change, negative = inhibition. 340,000 tested, 0.071% active. AID 540253; active means falling FRET ratio curve, often poorly fitted, with flat reads before Ran was added; inconclusive means other falling curves, or compound fluorescence or quenching; inactive means flat or rising ratio curve;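 further: potency means the concentration at half of the fitted maximal effect; % of control where 0% means no effect; nearly all actives have a fitted effect of over 45% in size; -100% = wells without RanGTP and RCC1; the record marks most hits as doubtful in a second field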
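FRET read at 45 min, room temperature: inhibitors block the CFP/YFP signal rise when RanGTP (0.6 uM Ran, 2 mM GTP, 0.2 uM RCC1) frees Rango (0.1 uM) from importin beta (0.25 uM). Pre-read after 5 min compound exposure flags interference.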
GLA inh pH 4.5 = alpha-galactosidase A (human) inhibition, pH 4.5. purified enzyme, 4-MU-alpha-Gal fluorescence, pH 4.5. activity change, negative = inhibition, % at 105 µM. P06280. AID 1467. 230,000 tested, under 10 active; inconclusive = small, poorly fitted or top-dose-only inhibition, or a rising curve; inactive = flat fitted curve, though single readings scatter; no compound was filed as active;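 further: 0% = full activity with enzyme and -100% = basal without enzyme; dose as in the result columns while the protocol names 77 µM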
Target sequence (P06280 whole entry, looked up): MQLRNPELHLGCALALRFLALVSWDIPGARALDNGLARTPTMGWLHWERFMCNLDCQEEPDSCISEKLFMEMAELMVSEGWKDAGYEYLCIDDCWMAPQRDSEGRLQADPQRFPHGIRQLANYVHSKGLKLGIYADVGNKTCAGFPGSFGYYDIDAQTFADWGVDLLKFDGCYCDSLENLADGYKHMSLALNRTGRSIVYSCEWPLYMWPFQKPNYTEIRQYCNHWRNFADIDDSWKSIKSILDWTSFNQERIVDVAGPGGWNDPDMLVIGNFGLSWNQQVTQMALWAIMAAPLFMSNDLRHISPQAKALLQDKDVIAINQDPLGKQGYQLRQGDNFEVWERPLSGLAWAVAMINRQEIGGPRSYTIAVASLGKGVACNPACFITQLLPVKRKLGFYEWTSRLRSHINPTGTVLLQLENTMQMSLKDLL
* hit, by the source's call; u = inconclusive; x = not tested or not shown. This is a subset; count on the stated rates, not on these rows.

Every second line gives: miR-21 reporter, Rango-impB inh, Rango release inh, GLA inh pH 4.5
COc1ccc(CNC(=O)CN2C(=O)NC(c3ccccc3)(c3ccccc3)C2=O)cc1OC
  x, 2.4%, 2%, x
Cc1ccc(C)c(CSc2nnc([C@@H]3CCCN3)o2)c1
  -9%, 0.0%, 11%, 7
CN(c1ccccc1)S(=O)(=O)c1cccc(NC(=O)COC(=O)C2CCCCC2)c1
  4%, -3.3%, -7%, -2
O=C(CCn1cnc2ncccc2c1=O)N1CCN(c2cccc(Cl)c2)CC1
  -1%, -1.5%, 4%, -2
CCc1ccc(/C(C)=N/NC(=O)CNC(=O)/C=C/c2ccccc2OC)cc1
  -3%, 5.5%, 7%, x
O=C(NCc1ccc(F)cc1)C(c1ccccc1)c1ccccc1
  7%, 5.2%, 37%, x
Cc1csc2c(=O)n3c(nc12)CCCCC3
  -5%, 1.6%, -3%, 1
O=C(c1cccc(S(=O)(=O)Nc2ccc(F)cc2)c1)N1CCOCC1
  x, 1.4%, 1%, x
CCn1c(SCC(N)=O)nc2sc3c(c2c1=O)CCCC3
  -11%, 3.3%, 1%, 3
CC(C)C1C(C#N)=C(N)Oc2n[nH]c(-c3ccccc3)c21 (stereo not drawn)
  -3%, 0.5%, -10%, u
COc1ccc(Cl)cc1NC(=O)Nc1ccc(C(=O)N2CCOCC2)cc1
  -2%, 1.5%, 2%, x
Cc1c(NC(=O)C2CCN(S(=O)(=O)c3ccc(Cl)cc3)CC2)c(=O)n(-c2ccccc2)n1C
  -1%, -2.4%, 0%, 10
Cc1ccc(CNC(=O)c2nn(C)c(C)c2[N+](=O)[O-])cc1
  -3%, 1.0%, 1%, 1
COc1cc(OC)cc(-c2c(C#Cc3ccsc3)c3cc(-c4ccc5c(c4)OCO5)ccc3n2C)c1
  x, u, -26%, x
CCOc1ccc(S(=O)(=O)Nc2ccc(C(=O)NCC(c3ccc(OC)cc3)N3CCOCC3)cc2)cc1 (stereo not drawn)
  x, 0.9%, -7%, x
Cc1ccc(P(=O)(CC(=O)O)c2ccc(C)cc2)cc1
  -3%, -3.4%, 1%, 5
COCCCNC(=O)c1ccccc1N(Cc1ccccc1)S(=O)(=O)c1ccc(OC)cc1
  16%, 0.8%, 30%, x
COc1ccccc1OCCSc1nnnn1-c1ccc(C)cc1
  -53%, 0.3%, -2%, -12
O=C1CSC(=Nc2cccc(Cl)c2Cl)N1Cc1cccnc1
  -1%, 0.0%, 3%, 1
COc1ccc(/C=N/NC(=O)CO/N=C(\C)c2cccs2)cc1
  -12%, -0.6%, 8%, -1
COC(=O)[C@@]1(Cc2ccc(OC)cc2)[C@H]2c3cc(C(=O)N(C)C)n(Cc4c(CO)[nH]cc(C)c4=O)c3C[C@H]2CN1C(=O)c1ccccc1
  x, -3.1%, -11%, -9
O=C(CN1C(=O)NC2(CCCCCCC2)C1=O)NCc1ccc(F)cc1
  x, 2.6%, -13%, x
CCCOc1ccc(C2C(C(=O)c3ccc(C)o3)=C(O)C(=O)N2Cc2cccnc2)cc1 (stereo not drawn)
  1%, x, x, 3
CCCN(C(=O)c1cn(-c2ccccc2)nc1-c1ccc(OC)cc1)C1CCS(=O)(=O)C1 (stereo not drawn)
  x, -0.3%, 25%, x
CC1CCN(C(=O)c2[nH]cnc2C(=O)N(C)Cc2ccccc2)CC1
  x, -0.3%, 0%, x
CCCCn1c(O)c(N=Nc2ccccc2O)c2ccccc21
  x, u, u, x
Cc1ccc(C)c(Nc2nc3ccccc3n3cnnc23)c1
  -17%, 9.2%, -3%, x
C=CCN(c1ccccc1Cl)S(=O)(=O)c1cccc(C(=O)NCCc2ccc(OC)cc2)c1
  23%, 0.9%, 3%, -10
Clc1cccc(CSc2nnc(-c3ccccn3)n2Cc2ccco2)c1
  0%, -2.2%, -9%, -1
CC(C)CN(C(=O)Cn1c(Cl)nc2c1c(=O)n(C)c(=O)n2C)C1CCS(=O)(=O)C1 (stereo not drawn)
  x, -0.9%, 0%, x
CCOc1ccc(NC(=O)CCCCCN2C(=O)[C@@H]3Cc4ccccc4CN3C2=O)cc1
  4%, 0.0%, 13%, x
CC(C)NC(=O)CN(CCc1ccccc1)S(C)(=O)=O
  1%, 7.7%, -17%, -2
Cc1c(/C(O)=C2/C(=O)C(=O)N(CCN3CCOCC3)C2c2cccs2)cnn1-c1ccccc1 (stereo not drawn)
  -51%, 0.1%, 3%, -1
COc1ccc(-c2cccc(C(=O)NCC(=O)O)c2)cc1
  -19%, -3.0%, -14%, 2
O=C(c1cccc(Cl)c1)N(Cc1ccco1)C1CCS(=O)(=O)C1 (stereo not drawn)
  1%, -1.4%, 14%, x
COc1ccc(-c2cc(-c3nnc(-c4ccncc4)o3)c3ccccc3n2)cc1
  -8%, 4.9%, 1%, 3
COc1ccc(C(C)(C)C)cc1NC(=O)c1ccc[n+]([O-])c1
  -2%, 3.0%, -2%, x
CCOc1ccc(NC(=O)CSc2nnnn2CC(=O)O)cc1
  -10%, 0.2%, 3%, 3
CC1CN(c2ccc([N+](=O)[O-])c(NCCOc3ccccc3)c2)CC(C)N1 (stereo not drawn)
  14%, 3.6%, 6%, x
O=C(Nc1ccc(C2=CN(Cc3ccccc3)CCC2=O)cc1)OCc1ccccc1
  x, 1.1%, -8%, x
O=C(CCN1C(=O)/C(=C/c2ccccc2Cl)SC1=S)Nc1cccnc1
  -5%, -0.6%, -11%, x
COc1ccc2ccccc2c1CN1CCN(C(=O)c2ccccc2)CC1
  -1%, -0.1%, -16%, -11
CCN(CC)CCCNc1oc(-c2ccccc2[N+](=O)[O-])nc1C#N
  -2%, 0.8%, -8%, 3
COc1ccc(NC(=O)NCc2ccccn2)cc1
  -22%, 3.3%, 0%, 3
CC1(C)CC(NC(=O)COc2ccc3ccc(=O)oc3c2)CC(C)(C)N1
  3%, -1.8%, -1%, x
Cc1nn(CC(=O)O)c(C)c1C
  1%, -4.9%, 22%, -3
O=C(Nc1ccc(O)cc1)C1CC=CCC1 (stereo not drawn)
  -24%, 0.1%, -8%, 0
CCOC(=O)c1sc(NC(=O)c2ccc(OC)cc2)nc1C
  -14%, 1.5%, 13%, 0
CC(=O)Nc1ccc(S(=O)(=O)N2CCn3cccc3C2C)cc1 (stereo not drawn)
  x, -1.4%, -11%, x
Cc1cc(C(=O)N2CCN(c3ncccn3)CC2)cs1
  -6%, -3.5%, 1%, 5
CCC(NC(=O)c1ccc(C#CC2(O)CCCCC2)cc1)C(=O)O (stereo not drawn)
  -1%, u, 10%, -2
Cc1sc(NC(=O)c2ccccc2)c(C(c2ccc(Cl)cc2)N2CCN(CCO)CC2)c1C (stereo not drawn)
  22%, -3.3%, 4%, 3
COCc1nnc(SCC(=O)Nc2cccc(Cl)c2C)n1-c1ccccc1
  -4%, 0.2%, 14%, 5
COc1cc(/C=C/C(=O)Nc2ccc(S(=O)(=O)Nc3ncccn3)cc2)ccc1OCC#N
  x, -0.7%, 0%, x
CCC(NS(=O)(=O)c1ccc2c(c1)NC(=O)C(C)C(=O)N2)c1cccs1 (stereo not drawn)
  7%, -0.4%, 1%, x
O=C(O)c1cc2cc(OCc3ccccc3)ccc2[nH]1
  -19%, 1.4%, 0%, -1
Cc1cccc(C)c1NC(=O)c1cc2c(=O)c3ccccc3oc2nc1C(F)(F)F
  -7%, 3.3%, 2%, -1
CCOC(=O)c1cccc(NC(=O)c2ccc(N(C)C)cc2)c1
  -8%, -1.9%, -10%, 2
COC(=O)C1=C(C)N(Cc2ccccc2)C(=S)N[C@H]1c1cccc(C(F)(F)F)c1
  3%, 0.0%, 37%, x
O=C(CCN1C(=O)C2CCCCC2C1=O)N1CCN(S(=O)(=O)c2cccc(F)c2)CC1 (stereo not drawn)
  x, 0.1%, 0%, x

New compounds follow.
Every second line gives: miR-21 reporter, Rango-impB inh, Rango release inh, GLA inh pH 4.5
CC(CC(=O)Nc1ccc(-c2ccno2)cc1)n1cccn1 (stereo not drawn)
  -6%, -1.5%, 0%, x
Nc1nc2c(nc(SCc3ccccc3Br)n2[C@@H]2O[C@H](CO)[C@@H](O)[C@H]2O)c(=O)[nH]1
  2%, 3.9%, -10%, x
CC1CCN(c2nc3c(c(=O)n(C)c(=O)n3C)n2Cc2ccccc2)CC1
  2%, 2.8%, -13%, -4
C=CCn1nc(-c2ccccc2)c2c(C)onc2c1=O
  6%, 1.7%, 17%, -3
Cc1ccc(C(=O)Nc2ccc(S(=O)(=O)N3CCc4ccccc43)cc2)o1
  14%, -1.6%, -5%, -4
Cc1onc(-c2c(Cl)cccc2Cl)c1C(=O)NCCCN1CCOCC1
  -8%, -1.2%, 0%, 7
CC(=O)Nc1ccc(S(=O)(=O)N2CCN(C(=O)c3ncoc3-c3ccc(F)cc3)CC2)cc1
  2%, 14%, 33%, x
C=CCSc1nnc(-c2cc3c(-c4ccccc4)nn(C)c3s2)n1C
  0%, 0.6%, 1%, u
CCn1cc([N+](=O)[O-])c(C(=O)Nc2ccc3c(c2)OCCO3)n1
  -34%, 3.1%, -1%, 3
O=C(NCCc1ccccc1)C(=O)NCC1OCCN1S(=O)(=O)c1ccc2c(c1)OCCO2 (stereo not drawn)
  3%, 1.6%, 0%, x
COc1ccc(CNCCC2(Cc3ccccc3)CC(C)N(C)CC2C)cc1OC (stereo not drawn)
  -4%, -0.6%, -3%, -2
COc1ccc(S(=O)(=O)NCC2(N3CCOCC3)CCCCC2)cc1OC
  x, -2.6%, 8%, x
S=C(NCCN1CCCCC1)Nc1ccc(Br)cc1
  -7%, 3.8%, 34%, -1
CN1CCN(c2nc3c(c(=O)[nH]c(=O)n3C)n2CCSc2nc3ccccc3s2)CC1
  -7%, -1.2%, 11%, -11
O=C(Nc1ccccc1)c1ccsc1
  -39%, -4.5%, 6%, 0
CCNc1nc(NCC)nc(N(C)/N=C/c2ccco2)n1
  1%, 0.1%, 6%, x
CC1CCN(Cc2c(C(=O)O)nnn2-c2nonc2N)CC1
  -1%, -5.4%, -3%, 12
CC1(C)CC(=O)C=C(C(=O)N2CCCC(C(=O)c3cccc(Cl)c3)C2)O1 (stereo not drawn)
  -6%, -0.3%, -1%, -5
O=C(c1ccccc1F)N1CCCc2ccccc21
  -10%, 0.0%, 1%, x
CC(C)[n+]1ccn(C2=C([O-])c3ccccc3C(=O)/C2=N\S(=O)(=O)c2ccccc2)c1
  23%, -0.4%, -9%, -5
C/C(=N\NC(=O)c1cccnc1)c1ccccc1
  -13%, 5.8%, -8%, x
CCCC(=O)Nc1ccc(NC(=O)C2CC2)cn1
  -25%, -0.2%, 9%, -5
Cc1ccccc1S(=O)(=O)c1cc2ccccc2nc1N
  -7%, 0.3%, 15%, 16
O=C(CCNS(=O)(=O)c1ccc(Br)cc1)NC1CCN(Cc2ccccc2)CC1
  8%, 0.5%, 11%, x
COc1ccc(OC)c(C2=NO[C@@H]3C(=O)N(c4cc(Cl)ccc4OC)C(=O)[C@H]23)c1
  -1%, 3.1%, 8%, -5
O=C(Nc1nnc(C2CC2)s1)C1Cc2ccccc2CN1S(=O)(=O)c1cccs1 (stereo not drawn)
  -28%, -5.1%, 10%, -3

Some of these compounds in order of count of non-hydrogen atoms, descending:
Every second line gives: miR-21 reporter, Rango-impB inh, Rango release inh, GLA inh pH 4.5
CC(C)[n+]1ccn(C2=C([O-])c3ccccc3C(=O)/C2=N\S(=O)(=O)c2ccccc2)c1
  23%, -0.4%, -9%, -5
COc1ccc(OC)c(C2=NO[C@@H]3C(=O)N(c4cc(Cl)ccc4OC)C(=O)[C@H]23)c1
  -1%, 3.1%, 8%, -5
Cc1ccccc1S(=O)(=O)c1cc2ccccc2nc1N
  -7%, 0.3%, 15%, 16
C/C(=N\NC(=O)c1cccnc1)c1ccccc1
  -13%, 5.8%, -8%, x

Screening results from PubChem.
